TRPML1 blocker = qHTS for Inhibitors of the Human Mucolipin Transient Receptor Potential 1 (TRPML1) | TRPML1-inducible cells, Ca2+ dye fluorescence, FDSS; stronger effect = lower value; inhibition of EC80 agonist-evoked calcium signal | activity change, negative = inhibition, % (no concentration beside the values) | Mucolipin-1 (Homo sapiens), Q9GZU1 | actives 0.02% (n = 390,000) | AID 624415, 2012; in the data active means activity change below about -50%; inconclusive means about -30% to -50%; inactive means above about -30%;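 note: stimulus is agonist 54-4 at its EC80 concentration; % is set by controls: 0 for no effect and ±100 for the full control effect; compound concentration not given in the record; the text of the record puts the active cut at -80%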
Target sequence (Q9GZU1 whole entry, looked up): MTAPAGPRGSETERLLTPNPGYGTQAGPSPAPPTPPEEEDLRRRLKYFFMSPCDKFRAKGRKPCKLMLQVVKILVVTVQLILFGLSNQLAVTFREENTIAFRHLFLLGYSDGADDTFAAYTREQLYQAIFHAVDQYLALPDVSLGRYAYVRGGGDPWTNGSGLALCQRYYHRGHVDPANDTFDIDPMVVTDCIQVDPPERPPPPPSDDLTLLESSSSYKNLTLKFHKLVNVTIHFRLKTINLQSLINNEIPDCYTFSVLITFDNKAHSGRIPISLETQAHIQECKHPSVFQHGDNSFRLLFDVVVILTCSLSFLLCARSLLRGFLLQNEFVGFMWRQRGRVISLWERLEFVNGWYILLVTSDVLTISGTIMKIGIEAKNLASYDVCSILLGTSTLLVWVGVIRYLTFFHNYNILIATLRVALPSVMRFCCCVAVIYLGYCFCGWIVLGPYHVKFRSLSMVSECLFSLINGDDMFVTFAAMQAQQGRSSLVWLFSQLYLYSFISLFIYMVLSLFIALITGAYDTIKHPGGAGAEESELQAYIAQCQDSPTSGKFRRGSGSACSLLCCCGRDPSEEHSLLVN
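TRPML1-DL cells, Tet-induced overnight (~16 h, 37 °C) at 1,500 cells/well, were loaded with Ca8 no-wash dye plus quencher for 45-90 min at room temperature. Compounds were pinned during FDSS kinetic reading; agonist 54-4 at EC80 (4 uM final) then added.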
Menin MLL FP FL = qHTS Assay for Inhibitors Targeting the Menin-MLL Interaction in MLL Related Leukemias: Competition With Fluorescein Labeled MLL-derived Peptide | Fluorescence polarization, fluorescein-MLL peptide displacement from menin | FP activity change, % at 61.4 µM | 290,000 tested, under 10 active; inconclusive = falling polarisation curve, or a change in total fluorescence; inactive = total fluorescence flat and polarisation flat or rising; no compound was filed as active; the % refers to the polarisation; negative = inhibition;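 note: % of control where 0% means no effect; inhibitors lower the polarisation; unlabelled MLL peptide was the positive control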
gsp agonist = qHTS for Agonist of gsp, the Etiologic Mutation Responsible for Fibrous Dysplasia/McCune-Albright Syndrome: qHTS | gsp mutant cells, cAMP HTRF, 30 min; control for the full effect not named in the record | Potency, µM (series often up to 76.9 µM), for the others: top-dose activation (cAMP increase), usual class: activators | actives 0.13% (n = 340,000) | AID 624287, 2012; active = well fitted activation curve with a large enough effect; inconclusive = small, poorly fitted or top-dose-only effect, or another doubt; inactive = no such curve, though single readings can be large or run the other way; cell line not stated here;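 note: phosphodiesterase inhibitor Ro 20-1724 added with compounds to block cAMP breakdown; potency is the fitted concentration of half-maximal effect; nearly all actives have a fitted effect of over 60% in size; about a fifth of the inactives were tested at one dose only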
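Cells stably selected in G418 were plated at 2000/well, grown 16-24 hr, then given compounds in DMSO with the PDE inhibitor […] (300 uM solution added) for 30 min at 37C; cAMP was read by HTRF.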
ClpP mod = qHTS Assay for Activators of ClpP | actives 1.9% (n = 340,000) | ATP-dependent Clp protease proteolytic subunit (Bacillus subtilis (strain 168)), P80244 | Potency, µM (top dose mostly 57.5 µM), for inactives: top-dose activity change, negative = active | AID 651965, 2013 | purified B. subtilis ClpP, FRET peptide cleavage, 20 min; active = well fitted falling curve with a large enough effect; inconclusive = small, poorly fitted or top-dose-only effect; inactive = no such curve, though single readings can be large or run the other way; note: potency is the fitted concentration of half-maximal effect; the source files actives as falling curves though it sought activators and does not explain the sign; nearly all actives have a fitted effect of over 65% in size; many hits overshoot -100%
Target sequence (P80244 whole entry, looked up): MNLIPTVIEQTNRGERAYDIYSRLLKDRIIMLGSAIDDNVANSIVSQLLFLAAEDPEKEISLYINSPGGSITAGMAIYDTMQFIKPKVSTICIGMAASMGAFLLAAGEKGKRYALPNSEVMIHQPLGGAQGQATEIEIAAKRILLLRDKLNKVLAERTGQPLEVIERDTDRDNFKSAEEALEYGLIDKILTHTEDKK
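Buffer: 100 mM Tris/HCl pH8, 100 mM KCl, 0.05% low protease BSA, 2.5% glycerol, 0.01% Tween-20. ClpP 10 microg/mL final; 20 min RT; delta FRET normalized to ADEP and DMSO controls.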
TRPML1 ag = qHTS for Agonists of the Human Mucolipin Transient Receptor Potential 1 (TRPML1). TRPML1-expressing cells, Ca2+ dye fluorescence, FDSS; host cell line not named in the record; reference of the full effect not given here. Mucolipin-1 (Homo sapiens), Q9GZU1. activation, % (concentration not given with the values). actives 0.12% (n = 410,000). AID 624414, 2012; in the data active = activation above about 50%; inconclusive = about 30% to 50%; inactive = below about 30%; note: 0% is about no effect; the text of the record puts the active cut at 80%
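Cells: TRPML1-DL, 1X Tet inducer, ~16 h at 37 degrees C/5% CO2. Dye: ABD Ca8 no-wash + quencher, 45-90 min RT. Read: 10 s baseline, compound add, 110 s agonist phase; 54-4 EC80 (4uM final), 110 s antagonist phase.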
gsp antag = qHTS for Antagonists of gsp, the Etiologic Mutation Responsible for Fibrous Dysplasia/McCune-Albright Syndrome: qHTS | AID 624288, 2012 | actives 0.4% (n = 340,000) | gsp-mutant cells, cAMP HTRF, 30 min; control for the full effect not named in the record | Potency, µM (top dose mostly 76.9 µM), for the others: at the highest dose activity change, negative = inhibition, usual class: inhibitors; active = falling curve of any shape with a large fitted effect; inconclusive = falling curve, mostly with a smaller effect; inactive = flat or rising curve; cell line not stated here;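 note: intracellular cAMP measured with PDE inhibitor Ro 20-1724 present during compound exposure; potency is the fitted concentration of half-maximal effect; % is set by controls: 0 for no effect and ±100 for the full control effect; nearly all actives have a fitted effect of over 65% in size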
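Measurement of cellular cAMP by homogeneous time-resolved fluorescence following a 30 min compound exposure at 37C. The PDE inhibitor […] was present throughout; the assay buffer was DPBS with 0.05% BSA and 0.005% Tween 20.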
Starred values were filed as active, the others as inactive; ? = inconclusive; nt = no result given; [ ] = dose if it differs, or a comment.

Sequence of screens: TRPML1 blocker | Menin MLL FP FL | gsp agonist | ClpP mod | TRPML1 ag | gsp antag
#1 O=C(Nc1ccc(N2CCCC2)cc1)c1cccc(F)c1
 : -7 | 4.6 | 1% | -5.6% | 0.0 | 0%
#2 Cc1nc2cc(NC(=O)CCS(=O)(=O)c3ccccc3)ccc2s1
 : -3 | -3.7 | 13% | -2.5% | 0.2 | 2%
#3 COc1cccc(NC(=O)c2csc3c2CCCC3)c1
 : 10 | 4.5 | 6%[15.4 µM] | nt | 1.8 | nt
#4 Cn1cc(Br)c(C(=O)Nc2c(F)c(F)c(F)c(F)c2F)n1
 : 1 | 1.5 | 19% | -2.0% | -0.1 | 1%
#5 CCn1cc(CN2CCC(Oc3ccc(C(=O)N4CCCCC4)cc3)CC2)cn1
 : -14 | nt | -15%[15.4 µM] | 2.0% | 0.5 | 7%
#6 Cc1ccc(-n2c(C)nc3oc4ccccc4c(=O)c3c2=O)cc1
 : -11 | ? | ? | -2.4% | -0.3 | 12%
#7 CN(CC(=O)NC(=O)NCc1ccccc1)Cc1ccc(Cl)cc1
 : 30 | 3.1 | 1%[15.4 µM] | -3.8% | 0.8 | 1%
#8 Nc1ccccc1Sc1c[nH]c2ccccc12
 : 21 | nt | -19% | -1.4% | 5.1 | -18%
#9 Cc1c(Cl)cccc1NC(=O)CNc1cccc(S(=O)(=O)N(C)C)c1
 : 2 | 2.9 | 0% | 1.9% | -1.0 | -22%
#10 COc1ccc(S(=O)(=O)N2CCOCC2)cc1NC(=O)c1c(-c2ccccc2)noc1C
 : -8 | nt | -1%[15.4 µM] | -2.8% | -0.5 | 5%
#11 COc1cccc(C2Nc3ccccc3NC3=C2C(=O)CC(C)(C)C3)c1 (configuration not stated)
 : -5 | 1.9 | -14% | nt | 0.6 | 8%
#12 Cc1cccc(NC(=O)c2ccc3c(c2)OCCO3)n1
 : -7 | nt | ? | 0.4% | 0.6 | 1%
#13 O=C(c1ccc(F)cc1)C1CCN(S(=O)(=O)c2ccccc2)CC1
 : ? | -5.9 | 22%[15.4 µM] | 0.5% | 1.2 | -44%
#14 COc1ccccc1C(=O)N1CCN(C(=O)c2oc3c(C)c(C)ccc3c2C)CC1
 : -9 | nt | 29% | -0.6% | -0.1 | nt
#15 Cc1ccc(-c2nnn(CC(=O)NCc3ccccc3)n2)c(-n2cnnn2)c1
 : 6 | 1.7 | -39%[inhibitor] | 4.6% | -1.8 | 2%
#16 Cc1ccc(OCC(=O)N/N=C/C=C/c2ccco2)cc1
 : 3 | ? | 9% | 0.8% | -0.9 | 2%
#17 CCC(=O)N(CCN1CCOCC1)Cc1cc2cc3c(cc2nc1Cl)OCO3
 : -23 | 2.1 | ? | -25% | 1.9 | 0%
#18 CCn1c(COc2cccc(C)c2C)nnc1SCC(=O)N1CCN(c2ccc(OC)cc2)CC1
 : 14 | -3.6 | 0% | 4.2% | -0.4 | -5%
#19 COC(=O)c1cccc(-n2c(C)cc(C=O)c2C)c1C
 : 6 | -1.2 | 13% | 0.7% | 1.9 | 6%
#20 CCc1ccc(C2=NN(S(C)(=O)=O)C(c3cccs3)C2)cc1 (configuration not stated)
 : -6 | ? | -4% | -2.5% | 0.9 | -10%
#21 O=C(CN1C(=O)CCC1=O)NCC12CC3CC(CC(C3)C1)C2
 : -12 | -1.3 | ? | -0.5% | -0.4 | 15%
#22 COc1ccc(CN2CCCC(N3CCN(c4ccc(OC)cc4)CC3)C2)cc1 (configuration not stated)
 : -16 | 4.7 | -15% | -4.2% | -0.2 | 5%
#23 CCOc1ccc(C(=O)N2CCN(c3ccccc3)CC2)cc1OCC
 : -4 | -0.3 | -33% | 0.1% | 0.6 | 8%
#24 CCOc1ccc(NC(=O)CSc2nc(=O)n(CCCN3CCOCC3)c3c2CCC3)cc1
 : 0 | nt | -9% | -2.3% | -0.2 | -13%
#25 COc1ccc(N(CC(=O)Nc2cccc(C)c2C)S(=O)(=O)c2c(C)[nH]c(=O)[nH]c2=O)cc1
 : -3 | 1.4 | -5%[15.4 µM] | nt | 0.6 | 3%
#26 CC(C)CCN1C(=O)c2ccccc2CC1(C)C(=O)NC1CCC(C)CC1 (configuration not stated)
 : 22 | nt | nt | 0.3% | 0.9 | nt
#27 Cn1c(CSc2nc3ccccc3n2C)nc2ccccc21
 : 5 | -1.2 | 21% | -1.7% | -0.9 | 1%
#28 CC(C)c1cccc(C2=CC(=O)C[C@H](c3ccc(F)cc3)C2)c1
 : -6 | nt | -7% | 1.5% | -0.1 | -18%
#29 Cc1cc(C)c(NC(=O)CN2C(=O)NC3(CCCc4ccccc43)C2=O)c(Cl)c1 (configuration not stated)
 : 3 | nt | -3%[15.4 µM] | nt | 0.1 | -2%
#30 O=C(NC1CCN(Cc2ccccc2)C1)c1cccc(S(=O)(=O)N2CCOCC2)c1 (configuration not stated)
 : -4 | nt | 22% | 1.0% | -0.2 | 9%

Along the list, quoted from above.
gsp agonist for nos. 25 to 30, in order: -5%[15.4 µM], nt, 21%, -7%, -3%[15.4 µM], 22%
TRPML1 blocker for nos. 25 to 30, in order: -3, 22, 5, -6, 3, -4

The listing continues:
Sequence of screens: TRPML1 blocker | Menin MLL FP FL | gsp agonist | ClpP mod | TRPML1 ag | gsp antag
#31 CSc1nn2c(C(F)(F)F)cc(C(F)(F)F)nc2c1C(=O)O
 : 2 | 4.3 | 12%[15.4 µM] | 1.1% | -0.3 | -15%
#32 Cc1cc(-c2nnc3n2N=C(c2ccc(-c4ccccc4)cc2)CS3)n[nH]1
 : 33 | 2.2 | ? | -0.9% | 2.0 | ?
#33 Cc1ccc(-c2nnn(CC(=O)N(CCCO)C(C(=O)NC3CCCC3)c3ccc(Cl)cc3)n2)o1 (configuration not stated)
 : -9 | -0.3 | -23% | nt | 0.0 | 3%
#34 Nc1ncnc2nc(SCC(=O)Nc3ccccc3F)[nH]c12
 : -19 | -3.9 | 13% | nt | 0.3 | 10%
#35 CC(C)OCCCNC(=O)c1nn(C)c2c1CSc1ccccc1-2
 : -17 | nt | nt | -1.6% | 3.7 | nt
#36 COc1ccc(C2CC(c3cc(Br)ccc3F)n3nnnc3N2)cc1 (configuration not stated)
 : -3 | 0.9 | -11% | -0.9% | -0.6 | -10%
#37 CC1=NN(c2nc(N)nc(/C(C#N)=C/c3ccc([N+](=O)[O-])o3)n2)C(C)(C)C1
 : -8 | nt | -8% | -2.0% | 5.3 | 0%
#38 S=c1[nH]nc(COc2cccc(Cl)c2)n1Cc1ccccc1
 : 19 | -10 | -8% | nt | 1.8 | -2%
#39 O=C(Nc1ccccc1-c1ccccc1)NC1CC2CCCC(C1)N2Cc1ccc(F)cc1 (configuration not stated)
 : 0 | 2.3 | 35% | nt | 1.5 | 9%
#40 O=C(C1=NN[C@@H]2C(=O)N(c3cccc(F)c3)C(=O)[C@H]12)c1ccc2ccccc2n1
 : 20 | 1.0 | 1% | -11% | -0.2 | 6%
#41 Cc1cc[n+]2n1CC(O)C2 (configuration not stated)
 : -6 | 4.3 | -11%[15.4 µM] | nt | -0.3 | 9%
#42 c1ccc(-c2ncc(CSc3nncn3-c3ccccc3)s2)cc1
 : 6 | -0.4 | -2% | 0.5% | 2.8 | 0%
#43 Cc1ccc(C)c(Nc2ncnc(N)c2[N+](=O)[O-])c1
 : 27 | -4.6 | 32% | -2.4% | 1.5 | 7%
#44 CN(CC(=O)NCCc1ccc(S(N)(=O)=O)cc1)CC(=O)Nc1ccccc1C(F)(F)F
 : -1 | nt | -1%[15.4 µM] | 1.3% | -0.1 | 13%
#45 O=S(=O)(Cc1ccccc1)c1cnc2ccccc2n1
 : -6 | 2.5 | ? | -3.6% | -0.6 | 2%
#46 COC(=O)C(C)Sc1nnc(Cc2cc(=O)[nH]c(=O)[nH]2)n1-c1ccc(OC)cc1 (configuration not stated)
 : -11 | -3.8 | -19% | -5.1% | 0.2 | 7%
#47 CSc1ccc(-c2nc(CSCC(=O)NCCCN3CCOCC3)c(C)o2)cc1
 : 22 | 0.0 | ? | 35µM* | -0.6 | -4%
#48 COC(=O)Cc1ccc(NC(=O)c2ccc(NC(=O)c3ccco3)cc2)cc1
 : 28 | 1.8 | 7%[15.4 µM] | nt | -0.3 | -4%
#49 O=S1(=O)C=CC(Nc2cccc(Cl)c2)C1 (configuration not stated)
 : -12 | -0.7 | -8% | 0.2% | 0.2 | 0%
#50 COc1cccc(-n2c(SCC(=O)NC3CCCCC3)nc3n[nH]c(C)c3c2=N)c1
 : 3 | 0.5 | -4% | -5.1% | 2.3 | -4%
#51 O=S(=O)(NCc1ccccc1)NCc1ccccc1
 : 5 | -6.3 | -19% | nt | -0.5 | 5%
#52 CCn1c(COc2ccccc2C)nnc1SCC(=O)Nc1cc(C)on1
 : -14 | -0.3 | 10% | -3.4% | 0.0 | -4%
#53 CC1CCCC(C)N1C(=O)CSc1nnnn1C1CCCC1 (configuration not stated)
 : -15 | -10 | -4% | nt | 0.0 | 7%
#54 Cc1cccc(NC(=O)c2ccc(N(Cc3ccccc3)S(C)(=O)=O)cc2)c1
 : 15 | nt | nt | 0.6% | -1.3 | nt
#55 C/C(N)=C(/C#N)C(=O)CSc1nc2ccccc2c(=O)n1-c1ccccc1C
 : -5 | 7.7 | -13% | -0.7% | -1.2 | 1%
#56 Cc1c(C(=O)N2CCN(Cc3nccn3C)CC2)oc2c(F)cccc12
 : 0 | nt | 9% | -1.4% | 0.0 | nt
#57 CC(C)C(=O)OC/C(O)=C(\C#N)c1nc2ccccc2[nH]1
 : -27 | ? | ? | nt | 0.0 | 10%
#58 CCC(=O)Nc1nnc(S(=O)(=O)N(C)c2ccccc2)s1
 : -13 | -2.8 | 21% | -1.9% | 1.2 | 0%
#59 CCc1nc2c(OCc3ccc(F)c(F)c3)cccn2c1N(C)C(=O)c1ccc(OC)cc1
 : 51 | nt | nt | -2.8% | -0.9 | nt
#60 COc1ccc(-c2c(C(F)(F)F)nn(C)c2NC(=O)c2ccco2)cc1
 : 3 | 1.3 | 4% | -2.3% | -1.0 | 3%
#61 O=C(Nc1ccc(S(=O)(=O)NC2=NCCCCC2)cc1)c1cc(S(=O)(=O)N2CCOCC2)ccc1F
 : 25 | -0.8 | 28% | 0.4% | -0.4 | 10%
#62 Cc1cc(=O)oc2cc(OCC#N)ccc12
 : 2 | 0.7 | 0% | 4.3% | -0.1 | 8%

Compound activity deposited in PubChem by National Center for Advancing Translational Sciences (NCATS).
